# RE007 growth inh = less growth of the S. pombe RE007 Vpr strain. S. pombe RE007 Vpr strain, BacTiter-Glo ATP luminescence, 24 h; control for the full effect not named in the record. Potency, µM (titrated, usually from 92.2 µM), inactives show top-dose activity change, negative = less growth. 360,000 compounds, 0.21% hits. AID 651644; active = well fitted falling curve with a large enough effect; inconclusive = small, poorly fitted or top-dose-only effect; inactive = no such curve, though single readings can be large or run the other way;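 also: % is scaled to controls: 0 for no effect and ±100 for the full control effect; nearly all actives have a fitted effect of over 50% in size; the assay follows cell death caused by Vpr and the record does not say whether a fall means rescue or toxicity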
#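 Fission yeast strain RE007, carrying one chromosomally integrated HIV-1 vpr copy, was seeded at OD 0.01 in PMG+AL medium with 23 nL pinned compound. After 24 h at 30 °C and 99% humidity, viability was read by BacTiter-Glo luminescence.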
# SARS PLP yeast = blocks SARS-CoV papain-like protease in a yeast assay | S. cerevisiae expressing SARS-CoV PLpro, growth rescue; control for the full effect not named in the record | AID 485353 | Potency, µM (doses to about 32.9 µM), inactives show top-dose activity, positive = growth rescue | 330,000 compounds, 0.19% hits; active means well fitted rising curve with a large enough effect; inconclusive means small, poorly fitted or top-dose-only effect; inactive means no such curve, though single readings can be large or run the other way; also: 0% is about no effect; nearly all actives have a fitted effect of over 55% in size; growth read by luminescence after 48 h
# 2A StopGo = lowers the luciferase signal of an FMDV 2A StopGo reporter; human cells with a luciferase reporter of 2A StopGo recoding; control for the full effect not named in the record; Potency, µM (highest dose often 57.9 µM), inactives show top-dose signal change, negative = less light; 410,000 compounds, 1.2% hits; active = well fitted falling curve with a large enough effect; inconclusive = small, poorly fitted or top-dose-only effect; inactive = no such curve, though single readings can be large or run the other way; tested in HEK293T cells; also: % is scaled to controls: 0 for no effect and ±100 for the full control effect; nearly all actives have a fitted effect of over 45% in size; luciferase light after 4 h
# Starred values were filed as active, the others as inactive; ? = inconclusive; [ ] = dose if it differs, or a comment. Potency is read from the fitted curve at half-maximal effect.
# Values run as follows: 2A StopGo | RE007 growth inh | SARS PLP yeast
- Cc1noc(C)c1NC(=O)Nc1ccc2c(c1)C(=O)N([C@H](C)CO)C[C@H](C)[C@H](CN(C)C)O2
    10% | -13% | -13%
- CC(C)(C)NC(=O)N1CCN(S(=O)(=O)c2ccc3c(c2)CCC3)CC1
    -14% | -3% | 8%
- Cc1ccc(NC(=O)COC(=O)c2ccco2)cc1S(=O)(=O)N1CCOCC1
    21% | 8% | -2%
- Cc1nn(-c2ccccc2)c(Cl)c1C(=O)NNC(=O)c1ccccc1O
    38%[activator] | 1% | -2%
- Cn1c(SCC(=O)Nc2ccc(N3CCOCC3)cc2)nnc1C(F)(F)F
    4% | 8% | -1%
- CC(C)N1C(=S)SC(C)(C)C1n1oc(=O)n(-c2cccc(Cl)c2)c1=O (stereo not drawn)
    9% | 21% | 1%
- Cc1ccc(S(=O)(=O)N2CCN(C(=O)c3ccc([N+](=O)[O-])cc3)C2)cc1
    -2% | 7% | 2%
- CCOP(=O)(OCC)C(Nc1ccc([N+](=O)[O-])cc1)c1ccc(Cl)cc1 (stereo not drawn)
    -26% | -8% | 1%
- CCN(CC(=O)NCc1cccs1)C(=O)COc1cccc(C(F)(F)F)c1
    -25% | -3% | -3%
- COc1cc2c(c(OC)c1OC)-c1ccc(O)cc1[C@@H](NC(C)=O)CC2
    7% | 9% | 0%
- C[C@H]1COC(=O)[C@H](CC(=O)OC(C)(C)C)C/C=C\C[C@H](CC(=O)N(CCO)Cc2ccccc2)C(=O)N1
    31%[activator] | -15% | -2%
- C[C@H](CO)N1C[C@H](C)[C@@H](CN(C)Cc2ccc(-c3ccccc3)cc2)Oc2c(NC(=O)Nc3ccc4c(c3)OCO4)cccc2C1=O
    -13% | 7% | 11µM*
- CCn1cc(C(=O)O)c(=O)c2cc(F)c(N3CCN(S(=O)(=O)c4ccc5c(c4)OCCO5)CC3)cc21
    -17% | 4% | 0%
- COc1ccccc1CNC(=O)c1ccc(NC(=O)CC2SC(N3CCCC3)=NC2=O)cc1 (stereo not drawn)
    11% | -3% | -6%
- Cc1ccc(NP(=O)(c2ccccc2)c2nc3ccccc3s2)cc1 (stereo not drawn)
    116%[activator] | -4% | 0%
- CCc1ccc(N2CC(C(=O)OCc3csc(CC(=O)Nc4ccccc4C)n3)CC2=O)cc1 (stereo not drawn)
    -21% | -2% | 2%
- COc1cccc2cccc(/C=N/n3cnnc3)c12
    -5% | 0% | -2%
- CCOC(=O)C1=CN(Cc2cccc(F)c2)S(=O)(=O)N(CC)C1c1ccccc1 (stereo not drawn)
    -1% | 32% | 5%
- CCOc1ccc(C(C(=O)NC2CCCC2)N(CCCO)C(=O)c2ccc(-c3ccccc3)[nH]2)cc1 (stereo not drawn)
    25% | 10% | -3%
- COc1cccc(N2CCN(C(=O)c3ccccc3SCC(=O)NCc3ccco3)CC2)c1
    -18% | -20% | -1%[6.58 µM]
- CCOc1ccc(NC(=O)CC(NC(C)=O)c2ccccc2)cc1S(=O)(=O)N1CCCC1 (stereo not drawn)
    14% | -3% | 2%
- CC1(C)CC(=O)C=C(c2ccc(-c3ccccc3)cc2)C1
    44%[activator] | -3% | 0%
- CCCNC(=O)C(Cc1ccccc1)NC(=O)c1ccc(-c2ccccc2)cc1 (stereo not drawn)
    14% | 5% | 2%
- CCCCC(=O)OCc1c(-c2ccccc2)ncc2ccccc12
    -12% | 7% | -1%
- C[C@@H]1CN([C@@H](C)CO)C(=O)c2cc(NC(=O)Nc3ccc4c(c3)OCO4)ccc2O[C@H]1CN(C)S(=O)(=O)c1cn(C)cn1
    -20% | -7% | 2%
- O=C(c1nc[nH]c1C(=O)N1CCc2ccccc2C1)N1CCc2ccccc2C1
    -16% | 5% | 0%
- CN(CC(=O)Nc1ccc(Cl)c(Cl)c1)C(=O)c1cccc2cccnc12
    -6% | 6% | 1%
- O=C(O)C1CCCC[C@H]1C(=O)Nc1ncc([N+](=O)[O-])s1 (stereo partly drawn)
    -4% | 7% | -9%
- Cc1ccc(S(=O)(=O)N2CCCC2)cc1C(=O)NCCOc1ccccc1
    5% | -17% | 2%
- CN(C)/C=C1\C(=O)NN=C1c1ccccc1
    -5% | 4% | 0%
- CC(C)CNC(=O)CN1C(=O)NC(Cc2c[nH]c3ccccc23)C1=O (stereo not drawn)
    -17% | -7% | -1%
- COc1ccc(C2=CCC3CCCCN3C2)cc1OC (stereo not drawn)
    -27% | -6% | 4%
- Cc1cc(OCCCC(=O)NCCc2nnc3ccccn23)ccc1Cl
    10% | 2% | 2%
- NC(=O)C1CCN(c2oc(-c3ccc(F)cc3)nc2S(=O)(=O)c2ccccc2)CC1
    15% | -13% | -26%
- COc1ccc(-c2nc(NC(=O)C3CC(=O)N(Cc4ccco4)C3)sc2C)cc1 (stereo not drawn)
    ? | 16% | -1%
- C#CCOCCOCCOCCNc1nc(N2CCN(C(=O)Cn3cc(CCCCN)nn3)CC2)nc(N2CCN(C(=O)Cn3cc(CCCN=C(N)N)nn3)CC2)n1
    -5% | 4% | -2%
- O=S(=O)(Nc1cccc2ncccc12)c1cccc(C(F)(F)F)c1
    19% | -3% | 2%
- O=C1C(=O)N(CCCn2ccnc2)C(c2ccc([N+](=O)[O-])cc2)/C1=C(\O)c1ccc2c(c1)OCCO2 (stereo not drawn)
    -6% | 5% | 3%
- COc1ccc(-c2nnc(SCC(=O)N(C)C3CCS(=O)(=O)C3)n2N)cc1OC (stereo not drawn)
    13% | -13% | 0%
- O=C(N/N=C\c1cccnc1)c1cc(-c2ccc(Cl)s2)[nH]n1
    -4% | 31% | 1%

# Complete entries from above. Values in the order: 2A StopGo, RE007 growth inh, SARS PLP yeast
# O=C(N/N=C\c1cccnc1)c1cc(-c2ccc(Cl)s2)[nH]n1 is listed with -4%, 31%, 1%
# CN(C)/C=C1\C(=O)NN=C1c1ccccc1 is listed with -5%, 4%, 0%
# O=C1C(=O)N(CCCn2ccnc2)C(c2ccc([N+](=O)[O-])cc2)/C1=C(\O)c1ccc2c(c1)OCCO2 (stereo not drawn) is listed with -6%, 5%, 3%
# CC(C)CNC(=O)CN1C(=O)NC(Cc2c[nH]c3ccccc23)C1=O (stereo not drawn) is listed with -17%, -7%, -1%
# CCCCC(=O)OCc1c(-c2ccccc2)ncc2ccccc12 is listed with -12%, 7%, -1%

# (next part)
# Values run as follows: 2A StopGo | RE007 growth inh | SARS PLP yeast
- C[C@H](CO)N1C[C@H](C)[C@@H](CN(C)CC2CCCCC2)Oc2c(NS(=O)(=O)c3ccc(F)cc3)cccc2C1=O
    98%[activator] | 3% | -1%
- COc1ccc(NC(=O)COC(=O)c2cccc(S(=O)(=O)N3CCCCC3)c2)c(OC)c1
    -17% | 15% | 2%
- O=C(NCC(=O)N1CCN(Cc2ccccc2)CC1)c1cccs1
    38%[activator] | -3% | -1%
- O=C(O)c1cc(S(=O)(=O)N2CCCCC2)ccc1N1CCCC1
    -19% | 1% | 1%
- Cc1nnc(SCC(=O)N(C2CCCCC2)C2CCS(=O)(=O)C2)n1C (stereo not drawn)
    -8% | 7% | -6%
- COc1ccc(NC(=O)c2ccc(OC)c(S(=O)(=O)N3CCCCC3C)c2)cn1 (stereo not drawn)
    -3% | -9% | 8%
- COc1ccccc1CN(C)C(=O)CN1CCN(C(=O)c2cccs2)CC1
    -15% | 6% | 0%
- CCOC(=O)c1cc(-c2ccccc2C)nn1CC1CC(c2cccnc2)=NO1 (stereo not drawn)
    -8% | -7% | -36%
- Cn1c(C=O)c(-c2ccc3c(c2)OCCO3)c2ccccc21
    -20% | -13% | 0%
- Nc1cc(Cl)ccc1C(=O)OCC(=O)NC1CCCCCCC1
    -1% | -6% | 3%
- Cc1[nH]c2ccccc2c1C(=O)CN1C(=O)C(=O)N(CCC2=CCCCC2)C1=O
    ? | -2% | 2%
- COc1cc(CCCN2CCNC[C@H]2Cc2cccc3ccccc23)cc(OC)c1OC
    -11% | -10% | 13%
- CN(Cc1ccccc1)C(=O)c1[nH]cnc1C(=O)NCc1ccc(CNC(=O)OC(C)(C)C)cc1
    ? | -1% | 2%
- CCN(C(=O)COC(=O)Cc1c(F)cccc1Cl)c1c(N)n(Cc2ccccc2)c(=O)[nH]c1=O
    14% | 1% | 0%
- Cc1cccc(NC(=O)c2ccc(S(=O)(=O)N3CCOCC3)cc2)n1
    15% | -5% | 2%
- CC1Cc2ccccc2N1C(=O)COC(=O)c1cccc(Br)c1 (stereo not drawn)
    -4% | -14% | -8%
- COc1ccc(NC(=O)CON=CC(=O)Nc2ccc(C)cc2)c(OC)c1
    -13% | 1% | -6%
- CC(C)NC(=O)Nc1ccc2c(c1)C(=O)N([C@H](C)CO)C[C@H](C)[C@@H](CN(C)S(=O)(=O)c1cn(C)cn1)O2
    -14% | -9% | 2%
- CCCC(C)C(=O)Nc1cc(S(=O)(=O)N2CCCCC2)ccc1N1CCOCC1 (stereo not drawn)
    -8% | -6% | -1%
- O=C(N/N=C1\CCSc2ccc(F)cc21)c1cccnc1
    10% | 0% | -5%
- Cc1ccc(S(=O)(=O)N2CCN(C(=O)CSC(=S)N3CCCC3)CC2)c(C)c1
    -19% | 1% | -4%
- O=C(Cn1ncc(Cl)c(Cl)c1=O)Nc1ccc2c(c1)OCO2
    35µM* | -10% | -18%
- CCCCCCN1C(=O)CC(NC(=O)OCC2c3ccccc3-c3ccccc32)C/C=C\C1C(C)C (stereo not drawn)
    -12% | 0% | -13%
- CCOC(=O)C1=C(CN2CCSCC2)NC(=O)NC1c1cccc([N+](=O)[O-])c1 (stereo not drawn)
    -12% | 11% | 0%
- CC1CCC(NC(=O)COC(=O)C2=NN(c3ccccc3)C(=O)CC2)CC1 (stereo not drawn)
    11% | -5% | -2%
- Cc1c(CCOC(=O)c2ccc(Cl)cc2Cl)sc[n+]1CC(=O)c1ccc(Br)cc1
    -27% | -13% | -3%
- NC(=O)C1CCN(C(=O)c2ccc(NS(=O)(=O)c3ccc(F)cc3)cc2)CC1
    -4% | 13% | -1%
- COC(=O)C(CCSC)NS(=O)(=O)c1ccc(Cl)cc1 (stereo not drawn)
    12% | 10% | 1%
- CCN1C(=O)[C@H]2[C@@H](c3ccc(-c4ccc(Cl)c(Cl)c4)cc3)N[C@@](Cc3ccccc3)(C(=O)OC)[C@H]2C1=O
    0% | 31% | -3%
- CCCCCc1ccc(OCCOCCn2c[n+](C)c3ccccc32)c(CCCCC)c1
    25µM* | ? | -18%
- CCOC(=O)C(=O)Nc1cc(C(=O)OC)cc(C(=O)OC)c1
    6% | -6% | 1%
- COc1ccccc1N(CC(=O)Nc1c(C)n(C)n(-c2ccccc2)c1=O)S(=O)(=O)c1ccc(C)cc1
    -10% | 2% | 10%
- Cc1noc(C)c1NC(=O)N(C)C[C@H]1Oc2ccc(NC(=O)Nc3ccccc3)cc2C(=O)N([C@H](C)CO)C[C@@H]1C
    -9% | 16% | -7%
- O=C(Cc1cccc([N+](=O)[O-])c1)Nc1cccc(C(=O)N2CCCC2)c1
    15% | -1% | -2%
- CCc1nnc(NC(=O)c2cc(-c3ccccn3)nc3ccccc23)s1
    -21% | 13% | -4%
- O=C(COC(=O)c1cc([N+](=O)[O-])ccc1N1CCOCC1)c1ccc(F)cc1
    -8% | 13% | 4%
- CC1=Nc2ccccc2/C1=C/c1nc(-c2ccc(C)s2)oc1O
    4% | 7% | 0%
- O=C1c2ccc(Cl)cc2S(=O)(=O)c2cccc(C(=O)N3CCC(Cc4ccccc4)CC3)c21
    ? | 10% | -3%
- CC(C(=O)N1CCc2ccccc21)n1cnc2c1c(=O)n(C)c(=O)n2C (stereo not drawn)
    -23% | -6% | 3%
- CN(C)CCCN(C(=O)C1COc2ccccc2O1)c1nc2ccc(F)cc2s1 (stereo not drawn)
    -2% | 20% | 0%
- COc1cc(/C=C/C(=O)OCC(=O)N2CCCC2)ccc1OCC#N
    -17% | -5% | 8%
- Cc1cccc(CN2CCN(c3ccc(Cl)cc3)CC2)c1
    -14% | -17% | 0%
- CCCCCCSc1ccc([C@@H]2[C@@H]3C(=O)N(CC)C(=O)[C@@H]3[C@]3(C(=O)OC)CCCCN23)cc1
    0% | 12% | 1%
- CC1CN(C(=O)CSc2nnc(C3CCCCC3)n2N)CC(C)O1 (stereo not drawn)
    -11% | 4% | 7%
- CC(C)NCc1nnc(-c2ccccc2Cl)o1
    17% | 11% | 0%
- CC1CCCC(C)N1C(=O)COC(=O)c1cccs1 (stereo not drawn)
    48%[activator] | -11% | 1%
- Cc1ccc(S(=O)(=O)Nc2cccc3c2O[C@@H](CN(C)C(=O)Nc2ccc4c(c2)OCO4)[C@H](C)CN([C@@H](C)CO)C3=O)cc1
    8% | -11% | 4%
- Cc1ccnc2nc(C(=O)OCC(=O)N(Cc3ccccc3)C(C)(C)C)nn12
    -13% | 2% | 3%
- CS(=O)(=O)NCCNc1ccc(Cl)cc1[N+](=O)[O-]
    20% | -2% | 1%

# Screening data: PubChem, National Center for Advancing Translational Sciences (NCATS)

# Only part of the results is shown, so the mix of outcomes need not match the whole.
